Assay outcomes (PubChem BioAssay)
Sfp PPTase inh = qHTS Assay for Inhibitors of Bacillus subtilis Sfp phosphopantetheinyl transferase (PPTase); 4'-phosphopantetheinyl transferase ffp (Bacillus subtilis), Q9F4F7; Biochemical Sfp PPTase activity, qHTS; Potency, µM, inactives show max response, negative = inhibition, most hits filed as inhibitors; hit rate 3.5% among 310,000; active = well fitted inhibition curve with a large enough effect; inconclusive = small, poorly fitted or top-dose-only effect, or another doubt; inactive = no such curve, though single readings can be large or run the other way;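 also: the enzyme is Sfp with the accession as filed and its product quenches rhodamine fluorescence; potency is read from the fitted curve at half-maximal effect; 0% = enzyme reaction without inhibitor and -100% = no enzyme wells; top concentration of the series not given in the record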
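With Hepes-Na pH 7.6 buffer containing 10 mM MgCl2, Sfp (15 nM) modified BHQ-2-YbbR (12.5 uM) using rhodamine-CoA (5 uM). Two reads 30 minutes apart at 525/598 nm yielded each well's rate.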
TRPML1 blocker = qHTS for Inhibitors of the Human Mucolipin Transient Receptor Potential 1 (TRPML1); AID 624415, 2012; hit rate 0.02% among 390,000; TRPML1-inducible cells, Ca2+ dye fluorescence, FDSS; active compounds read low; inhibition of EC80 agonist-evoked calcium signal; activity change, negative = inhibition, % (concentration not given with the values); Mucolipin-1 (Homo sapiens), Q9GZU1; in the data active means activity change below about -50%; inconclusive means about -30% to -50%; inactive means above about -30%;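 also: stimulus is agonist 54-4 at its EC80 concentration; % is scaled to controls: 0 for no effect and ±100 for the full control effect; the text of the record puts the active cut at -80%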
Target sequence (Q9GZU1 whole entry, looked up): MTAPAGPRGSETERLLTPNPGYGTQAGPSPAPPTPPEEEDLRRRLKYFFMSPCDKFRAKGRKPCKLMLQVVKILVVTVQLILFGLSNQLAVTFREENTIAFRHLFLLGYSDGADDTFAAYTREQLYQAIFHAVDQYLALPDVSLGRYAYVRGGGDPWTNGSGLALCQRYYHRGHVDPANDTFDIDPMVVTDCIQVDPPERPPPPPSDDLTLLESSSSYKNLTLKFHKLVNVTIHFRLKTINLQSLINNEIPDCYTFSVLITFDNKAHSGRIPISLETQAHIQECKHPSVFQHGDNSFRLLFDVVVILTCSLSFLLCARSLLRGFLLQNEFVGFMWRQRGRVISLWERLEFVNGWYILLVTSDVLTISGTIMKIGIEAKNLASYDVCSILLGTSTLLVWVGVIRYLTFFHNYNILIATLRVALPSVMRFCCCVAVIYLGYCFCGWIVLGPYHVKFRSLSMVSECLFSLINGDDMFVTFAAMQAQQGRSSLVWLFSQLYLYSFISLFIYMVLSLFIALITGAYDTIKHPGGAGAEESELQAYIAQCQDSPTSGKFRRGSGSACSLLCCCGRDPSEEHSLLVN
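Calcium fluorescence in TRPML1-DL cells induced overnight with Tet: a 110 s read after compound pin addition, then a 110 s antagonist read after challenge with 54-4 at 4 uM final (EC80).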
Menin MLL FP FL = qHTS Assay for Inhibitors Targeting the Menin-MLL Interaction in MLL Related Leukemias: Competition With Fluorescein Labeled MLL-derived Peptide; Fluorescence polarization, fluorescein-MLL peptide displacement from menin; FP activity change, % at 61.4 µM; 290,000 tested, under 10 active; AID 1766, 2009; inconclusive = falling polarisation curve, or a change in total fluorescence; inactive = total fluorescence flat and polarisation flat or rising; no compound was filed as active; the % refers to the polarisation; negative = inhibition;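 also: % of control where 0% means no effect; inhibitors lower the polarisation; unlabelled MLL peptide was the positive control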
TRPV1 PAM = HTS Assay for Compounds that Act as Potentiators of the Vanilloid Receptor 1; hit rate 0.02% among 320,000; TRPV1-expressing cells, Fluo-8 calcium influx, capsaicin EC20 potentiation; host cell line not named in the record; control for the full effect not named in the record; potentiation, % at 8.33 µM; Transient receptor potential cation channel subfamily V member 1 (Homo sapiens), Q8NER1; active means potentiation above 80%; inconclusive means 30% to 80%; inactive means below 30%; also: 0% is about no effect
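TRPV1-expressing cells were cultured overnight at 35.5C and loaded with Fluo-8 calcium dye for 40 to 90 min at room temperature. After a 10 s baseline, compound was added and calcium influx was read kinetically for 3 min (ex 480/em 520 nm).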
ClpP mod = qHTS Assay for Activators of ClpP | ATP-dependent Clp protease proteolytic subunit (Bacillus subtilis (strain 168)), P80244 | purified B. subtilis ClpP, FRET peptide cleavage, 20 min | Potency, µM (series often up to 57.5 µM), without a hit: at the highest dose activity change, negative = active | hit rate 1.9% among 340,000 | AID 651965, 2013; active = well fitted falling curve with a large enough effect; inconclusive = small, poorly fitted or top-dose-only effect; inactive = no such curve, though single readings can be large or run the other way; also: potency is read from the fitted curve at half-maximal effect; the source files actives as falling curves though it sought activators and does not explain the sign; nearly all actives have a fitted effect of over 65% in size; many hits overshoot -100%
Target sequence (P80244 whole entry, looked up): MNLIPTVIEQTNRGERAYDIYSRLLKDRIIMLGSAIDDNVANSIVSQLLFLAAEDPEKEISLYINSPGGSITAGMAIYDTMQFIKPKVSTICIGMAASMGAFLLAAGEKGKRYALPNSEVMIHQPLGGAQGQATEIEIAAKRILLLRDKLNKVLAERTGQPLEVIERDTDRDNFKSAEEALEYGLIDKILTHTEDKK
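FRET quenching reversal measured ClpP activation: 10 microg/mL B. subtilis ClpP at pH 8 with the FRET-FV decapeptide, read at 430 nm after 320 nm excitation. The 20-min minus 0-min signal was scaled between DMSO/no-enzyme wells and ADEP (5.8 microM final).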
TRPML1 agonist = qHTS for Agonists of the Human Mucolipin Transient Receptor Potential 1 (TRPML1). activation, % (test concentration not listed). Mucolipin-1 (Homo sapiens), Q9GZU1. TRPML1-expressing cells, Ca2+ dye fluorescence, FDSS; host cell line not named in the record; reference of the full effect not given here. AID 624414, 2012. hit rate 0.12% among 410,000; in the data active = activation above about 50%; inconclusive = about 30% to 50%; inactive = below about 30%; also: 0% is about no effect; the text of the record puts the active cut at 80%
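TRPML1-DL cells, Tet-induced overnight (~16 h, 37 degrees C), loaded 45-90 min at room temperature with Ca8 no-wash calcium dye plus quencher. FDSS fluorescence: 10 s baseline, compound pin-transfer, 110 s agonist read, then EC80 54-4 (4uM final) and 110 s antagonist read.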
PINK1 modulator = A Quantitative High throughput Screen to Identify Chemical Modulators of PINK1 Expression | PINK1 immunofluorescence, high-content cytometry, 24 h | Potency, µM (doses to about 76.6 µM), for inactives: top-dose activation (PINK1 increase), actives largely listed as activators | AID 624263, 2012 | hit rate 0.2% among 410,000; active = well fitted activation curve with a large enough effect; inconclusive = small, poorly fitted or top-dose-only effect; inactive = flat fitted curve, though single readings scatter; cell line not stated here;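 also: potency is read from the fitted curve at half-maximal effect; % of control where 0% means no effect; nearly all actives have a fitted effect of over 65% in size; a mitochondrial uncoupler was the plate control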
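PINK1 protein, normally rapidly degraded, was detected by immunofluorescence after 24 hour compound treatment of a stable cell line. Titration data (5 concentrations) came from laser-scanning cytometry, with CCCP-treated wells as controls.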
An asterisk follows results filed as active. This is a random part of the collection; any-hit rate near 4.4%.

CCCNC(=O)c1oc2ccc3c(c2c1C)C(=O)CC(C)(C)O3 was read as Sfp PPTase inh -6.3%, TRPML1 blocker -6.7, Menin MLL FP FL 2.3, TRPV1 PAM -11.9, ClpP mod 28.2µM*, TRPML1 agonist -0.5 and PINK1 modulator 1.4%.
CCOc1ccc(OCCC(=O)NNC(=O)c2cc(OC)c(OC)c(OC)c2)cc1 was read as TRPML1 blocker 40.9, TRPV1 PAM 15.1, ClpP mod -2.3%, TRPML1 agonist 2.0 and PINK1 modulator -0.1%.
Screening CC1CN(C(=O)N2CCC(C(=O)NCCCc3ccccc3)CC2)c2ccccc2O1 (stereo not drawn) returned TRPML1 blocker -18.7, ClpP mod 0.3%, TRPML1 agonist -0.5 and PINK1 modulator -1.4%.
For CCOC(=O)C(=CNc1ccc2c(c1)CCN2C(C)=O)C(=O)OCC the results were Sfp PPTase inh 12.4%, TRPML1 blocker 3.4, Menin MLL FP FL 1.5, TRPV1 PAM 5.2, ClpP mod -1.7%, TRPML1 agonist 0.9 and PINK1 modulator 0.1%.
`Cc1ccc(N2CCN(C(=O)C3CCN(S(=O)(=O)c4ccc5c(c4)oc(=O)n5C)CC3)CC2C)cc1` (stereo not drawn) gave TRPML1 blocker 24.8, ClpP mod -9.8%, TRPML1 agonist -1.0 and PINK1 modulator 1.6%.
For Cc1ccc(CCNC(=O)c2ccc(Nc3nc4ccccc4n4nnnc34)cc2)cc1 the results were TRPML1 blocker 8.9, ClpP mod inconclusive, TRPML1 agonist 0.8 and PINK1 modulator -0.4%.
`COc1ccccc1NC(=O)c1ccc(CSc2ncccn2)cc1` gave Sfp PPTase inh 10.3%, Menin MLL FP FL 1.2 and TRPV1 PAM -30.3.
Screening CN(CC(=O)Nc1ccc(F)cc1)CC(=O)N1CCCCCC1 returned TRPML1 blocker 2.4, TRPV1 PAM -31.7, ClpP mod 0.5%, TRPML1 agonist 2.8 and PINK1 modulator 0.6%.
`COc1ccc2cc3c(N)c(C(=O)N4CCCC4)sc3nc2c1` gave Sfp PPTase inh -26.1%, TRPML1 blocker 0.3, Menin MLL FP FL 7.0, TRPV1 PAM -4.0, ClpP mod -7.5%, TRPML1 agonist 0.1 and PINK1 modulator 7.1%.
For O=C(CN1CCN(C(=O)c2ccco2)CC1)Nc1cc(C(F)(F)F)ccc1Cl the results were Sfp PPTase inh 17.8%, TRPML1 blocker -0.7, Menin MLL FP FL -1.3, TRPV1 PAM -12.1, ClpP mod 1.1%, TRPML1 agonist 0.1 and PINK1 modulator 10.0%.
`CCOC(=O)C(C)Sc1nc(N2CCOCC2)c2c(c1C#N)CC(C)(C)OC2` (stereo not drawn) gave TRPML1 blocker 14.1, TRPML1 agonist 0.8 and PINK1 modulator -0.2%.
For CCN(C(=O)COC(=O)c1c(-c2ccccc2)noc1C)c1c(N)n(Cc2ccccc2)c(=O)[nH]c1=O the results were Sfp PPTase inh 1.2%, TRPML1 blocker -15.0, TRPV1 PAM -0.6, ClpP mod 3.3%, TRPML1 agonist 0.8 and PINK1 modulator 0.3%.
Screening Nc1nnc(SCc2ccccc2)n1-c1ccccc1 returned Sfp PPTase inh 14.8%, TRPML1 blocker 6.7, Menin MLL FP FL -2.2, TRPV1 PAM 14.1, ClpP mod -2.4%, TRPML1 agonist -0.3 and PINK1 modulator 1.1%.
`Cc1cccc(-n2c(O)c(C=NCCCN3CCOCC3)c3ccccc3c2=O)c1` gave Sfp PPTase inh -14.1%, TRPML1 blocker -2.8, Menin MLL FP FL -0.1, TRPV1 PAM 4.9, ClpP mod -1.9%, TRPML1 agonist 0.0 and PINK1 modulator 1.9%.
Screening Cc1ccc(-c2nc(CS(=O)(=O)CC(=O)Nc3cc(C)ccc3C)c(C)o2)cc1 returned TRPML1 blocker 4.8, ClpP mod -29.0%, TRPML1 agonist 0.7 and PINK1 modulator 0.9%.
`CC1(C)OC2C(O1)[C@@H](CO)O[C@H]2n1cnc2c(N)ncnc21` (stereo partly drawn) gave Sfp PPTase inh 19.8%, TRPML1 blocker -17.6, Menin MLL FP FL -0.6, TRPV1 PAM 3.8, ClpP mod -0.9%, TRPML1 agonist 1.3 and PINK1 modulator 1.2%.
`CCCCCCOC(=O)Nc1ccc(S(=O)(=O)Nc2cccc([N+](=O)[O-])c2)cc1` gave Sfp PPTase inh 19.1%, TRPML1 blocker 14.9, Menin MLL FP FL 5.9, TRPV1 PAM 2.1, ClpP mod 1.3%, TRPML1 agonist 1.3 and PINK1 modulator 12.6%.
For Cc1cc(=O)oc2cc3c(cc12)OCO3 the results were Sfp PPTase inh 6.7%, TRPML1 blocker -4.5, Menin MLL FP FL 0.0, TRPV1 PAM 0.2, ClpP mod 3.7%, TRPML1 agonist -0.4 and PINK1 modulator 0.4%.
CCc1ccc(CNC(=O)C2COc3ccccc3C2)cc1 (stereo not drawn) was read as TRPML1 blocker -1.7, ClpP mod -15.4%, TRPML1 agonist 1.6 and PINK1 modulator -1.5%.
For CS(=O)(=O)c1nc(-c2cccs2)cc(C(F)(F)F)n1 the results were Sfp PPTase inh -23.4%, Menin MLL FP FL 0.1 and TRPV1 PAM 2.2.
For CC(C)(C)C(=O)N1CCN(S(=O)(=O)c2ccc3c(c2)OCCCO3)CC1 the results were TRPML1 blocker 0.9, TRPV1 PAM -1.6, ClpP mod -1.0%, TRPML1 agonist -0.5 and PINK1 modulator 2.2%.
For Oc1[nH]c2ccccc2c1N=Nc1ccccc1Cl the results were TRPML1 blocker -5.8, ClpP mod 2.2%, TRPML1 agonist 6.8 and PINK1 modulator 31.6µM*.
`O=C(c1ccccc1)N1N=C(C(F)(F)F)CC1(O)c1ccccc1O` (stereo not drawn) gave Sfp PPTase inh 10.9%, TRPML1 blocker -11.0, Menin MLL FP FL -1.3, TRPV1 PAM -8.7, ClpP mod -4.9%, TRPML1 agonist 3.5 and PINK1 modulator 1.9%.
For COc1ccc(CCNC(=O)c2cc(-c3cc(C)c(C)cc3O)n[nH]2)cc1OC the results were Sfp PPTase inh -1.8%, TRPML1 blocker -4.9, Menin MLL FP FL 0.2, TRPV1 PAM -15.2, ClpP mod -0.1%, TRPML1 agonist -1.0 and PINK1 modulator 1.8%.
Screening CCCOc1ccc(Oc2ccc(S(=O)(=O)N3CCN(C)CC3)cn2)cc1 returned TRPML1 blocker -22.8, TRPV1 PAM -0.5, ClpP mod -2.7%, TRPML1 agonist -0.3 and PINK1 modulator -0.2%.
OCCN=C1CCCc2c1[nH]c1ccc(Br)cc21 was read as Sfp PPTase inh -4.7%, TRPML1 blocker -10.2, Menin MLL FP FL 10.6, TRPV1 PAM -6.3, ClpP mod -0.1%, TRPML1 agonist 0.1 and PINK1 modulator -1.1%.
COc1ccc(Cl)cc1-n1c(=S)sc2c(=O)[nH]c(SCC(=O)NCCC(C)C)nc21 was read as Sfp PPTase inh 3.1%, TRPML1 blocker 40.7, Menin MLL FP FL 10.4, TRPV1 PAM -6.6, TRPML1 agonist 1.4 and PINK1 modulator 0.4%.
Oc1ccc(-c2nnc(-c3ccccc3)c(-c3ccccc3)n2)cc1 was read as Sfp PPTase inh 9.6%, Menin MLL FP FL 2.1 and TRPV1 PAM 6.5.
`COc1cccc(-c2nc(NC3CCCC3)c3ccccc3n2)c1O` gave Sfp PPTase inh 6.8%, TRPML1 blocker -1.6, Menin MLL FP FL 7.9, TRPV1 PAM -7.4, ClpP mod -0.5%, TRPML1 agonist 0.9 and PINK1 modulator inconclusive.
Cc1ccc(-c2nc(NCCCO)c3ccccc3n2)cc1 was read as Sfp PPTase inh 10.1%, TRPML1 blocker 9.1, Menin MLL FP FL 1.2, TRPV1 PAM -11.8, TRPML1 agonist -0.4 and PINK1 modulator 0.5%.
COc1ccc([N+](=O)[O-])cc1NC(=O)C1(c2ccc(OC)c(OC)c2)CCOCC1 was read as Sfp PPTase inh 9.4%, TRPML1 blocker 36.3, Menin MLL FP FL -1.1, TRPV1 PAM -2.3, TRPML1 agonist 0.7 and PINK1 modulator -0.9%.
For CCNS(=O)(=O)c1ccc(CCC(=O)NC2CCCC2)cc1 the results were Sfp PPTase inh 7.9%, TRPML1 blocker 7.2, Menin MLL FP FL -4.2, TRPV1 PAM -5.5, ClpP mod 1.3%, TRPML1 agonist 0.0 and PINK1 modulator -1.9%.
Cc1sc2ncnc(SCC(=O)Nc3ncccc3O)c2c1C was read as TRPML1 blocker 16.6, TRPV1 PAM -1.5, ClpP mod -14.1%, TRPML1 agonist -0.5 and PINK1 modulator -0.3%.
For Nc1ccc2c(c1)OCCOCCOCCOCCOCCO2 the results were Sfp PPTase inh -7.8%, TRPML1 blocker -26.9, Menin MLL FP FL -23.9, TRPV1 PAM inconclusive, ClpP mod -2.0%, TRPML1 agonist -0.4 and PINK1 modulator 0.4%.
`CCOC(=O)Cn1ccc(-c2ccccc2)c(C#N)c1=O` gave Sfp PPTase inh 11.9%, TRPML1 blocker -9.6, Menin MLL FP FL -0.9, TRPV1 PAM -1.7, ClpP mod -11.8%, TRPML1 agonist 0.3 and PINK1 modulator 1.2%.
For O=C(COCc1cc(-c2ccc(F)cc2)on1)Nc1cc(Cl)ccc1O the results were TRPML1 blocker -4.9, ClpP mod 0.2%, TRPML1 agonist 0.7 and PINK1 modulator 2.7%.
O=C(O)C1CCN(C(=O)CSc2nnc(-c3ccccc3)o2)CC1 was read as TRPML1 blocker 9.2, ClpP mod 0.9%, TRPML1 agonist 3.0 and PINK1 modulator -0.2%.
CCn1c(CN2CCCCC2)nc2cc(NC(=O)c3ccccc3[N+](=O)[O-])ccc21 was read as TRPML1 blocker -0.8, ClpP mod -0.4%, TRPML1 agonist -0.3 and PINK1 modulator 7.3%.
Screening CC1(C)OC2C(CO)OC(n3cnc4c(=S)nc[nH]c43)C2O1 (stereo not drawn) returned Sfp PPTase inh 15.8µM*, TRPML1 blocker -10.7, Menin MLL FP FL 1.3, TRPV1 PAM -12.8, TRPML1 agonist -0.6 and PINK1 modulator 3.1%.
